RE007 growth inh: less growth of the S. pombe RE007 Vpr strain; S. pombe RE007 Vpr strain, BacTiter-Glo ATP luminescence, 24 h; control for the full effect not named in the record; actives 0.21% (n = 360,000); Potency, µM (series often up to 92.2 µM), without a hit: at the top dose activity change, negative = less growth; active = well fitted falling curve with a large enough effect; inconclusive = small, poorly fitted or top-dose-only effect; inactive = no such curve, though single readings can be large or run the other way;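 note: % is set by controls: 0 for no effect and ±100 for the full control effect; nearly all actives have a fitted effect of over 50% in size; the assay follows cell death caused by Vpr and the record does not say whether a fall means rescue or toxicity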
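Fission yeast RE007 carrying one integrated HIV-1 vpr copy, seeded at OD 0.01 in PMG+AL medium with 23 nL pinned compound. Grown 24 h at 30 degrees; viability read by BacTiter-Glo luminescence after 5 min.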
Cruzain noTriton: inhibitors of Trypanosoma cruzi cruzain without detergent; P25779; purified cruzain, Z-FR-AMC fluorescence, no detergent; Potency, µM, for inactives: max response, negative = inhibition, most hits filed as inhibitors; actives 2.3% (n = 200,000); AID 1476;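 note: plate controls were enzyme without inhibitor for no effect and buffer without enzyme for full effect; nearly all actives have a fitted effect of over 40% in size; top concentration of the series not given in the record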
Target sequence (P25779 123-467 limits assumed): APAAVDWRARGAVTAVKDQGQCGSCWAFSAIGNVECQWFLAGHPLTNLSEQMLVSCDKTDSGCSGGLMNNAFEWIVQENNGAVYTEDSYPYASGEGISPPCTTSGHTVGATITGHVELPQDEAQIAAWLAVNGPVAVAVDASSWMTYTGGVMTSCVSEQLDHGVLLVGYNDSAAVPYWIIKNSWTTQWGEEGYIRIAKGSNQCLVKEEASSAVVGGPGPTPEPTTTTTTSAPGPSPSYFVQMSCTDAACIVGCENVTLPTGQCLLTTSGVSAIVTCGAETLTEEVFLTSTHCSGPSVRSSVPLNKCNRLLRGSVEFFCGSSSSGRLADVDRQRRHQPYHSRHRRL
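Purified cruzain at 1.5 nM, pre-incubated 15 min with compound at room temperature in 100 mM sodium acetate pH 5.5, 5 mM DTT, 0.00005% Triton X-100. Reaction started with 2 uM Z-FR-AMC; AMC fluorescence increase over 60 s gives rate.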
StopGo reporter: lowers the luciferase signal of an FMDV 2A StopGo reporter. human cells with a luciferase reporter of 2A StopGo recoding; control for the full effect not named in the record. Potency, µM (highest dose often 57.9 µM), for the others: at the top dose signal change, negative = less light. actives 1.2% (n = 410,000). AID 1159524; active = well fitted falling curve with a large enough effect; inconclusive = small, poorly fitted or top-dose-only effect; inactive = no such curve, though single readings can be large or run the other way; tested in HEK293T cells; note: % is set by controls: 0 for no effect and ±100 for the full control effect; nearly all actives have a fitted effect of over 45% in size; luciferase light after 4 h
Cruzain Triton: cruzain (T. cruzi) inhibition with detergent | P25779 | purified cruzain, Z-FR-AMC fluorescence, 0.01% Triton | Potency, µM, for the others: max response, negative = inhibition, actives largely listed as inhibitors | actives 0.43% (n = 200,000) | AID 1478;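 note: plate controls were neutral wells for no effect and buffer without enzyme for full effect; nearly all actives have a fitted effect of over 40% in size; top concentration of the series not given in the record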
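In this qHTS format, compounds are incubated with 1.5 nM cruzain for 15 min at room temperature before 2 uM Z-FR-AMC is added. Release of AMC is followed at 360/450 nm, and progress is taken as the 60 s fluorescence difference.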
NS1 inh: influenza NS1 inhibition | S. cerevisiae slowed by influenza A NS1, growth recovery by OD600 | Potency, µM (titrated, usually from 46.1 µM), without a hit: top-dose activity, positive = more growth | actives 0.4% (n = 270,000); active means well fitted rising curve with a large enough effect; inconclusive means small, poorly fitted or top-dose-only effect; inactive means no such curve, though single readings can be large or run the other way; note: nearly all actives have a fitted effect of over 50% in size
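OD600 was taken as the measure of yeast growth restored by compound in an NS1-expressing S. cerevisiae strain. Cells had been washed out of glucose medium and diluted 1:100 into galactose -URA medium, pH 6.0.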
MARV entry inh: blocks Marburg virus binding to or entry into cells | Marburg virus pseudotyped entry inhibition, cell reporter; control for the full effect not named in the record; about a third of the inactives were read at about 46 µM | Potency, µM (titrated, usually from 37.8 µM), inactives show at the top dose activity change, negative = inhibition, most hits filed as inhibitors | actives 1.8% (n = 300,000); active = well fitted inhibition curve with a large enough effect; inconclusive = small, poorly fitted or top-dose-only effect, or effect the other way; inactive = flat fitted curve, though single readings scatter; tested in HEK293 cells; about a fifth of its hits are not listed in these tables; note: % is set by controls: 0 for no effect and ±100 for the full control effect; luciferase read-out
LASV entry inh: inhibitors of Lassa virus binding or cell entry | Lassa virus pseudotype entry inhibition, cell reporter; control for the full effect not named in the record | Potency, µM (doses to about 37.9 µM), for the others: top-dose activity change, negative = inhibition, usual class: inhibitors | actives 1.2% (n = 300,000) | AID 540256; active means well fitted inhibition curve with a large enough effect; inconclusive means small, poorly fitted or top-dose-only effect, or effect the other way; inactive means flat fitted curve, though single readings scatter; tested in HEK293 cells; note: % is set by controls: 0 for no effect and ±100 for the full control effect; nearly all actives have a fitted effect of over 50% in size; luciferase read-out
SARS PLP yeast: inhibitors of SARS-CoV papain-like protease in yeast; Potency, µM (titrated, usually from 32.9 µM), for inactives: top-dose activity, positive = growth rescue; S. cerevisiae expressing SARS-CoV PLpro, growth rescue; control for the full effect not named in the record; actives 0.19% (n = 330,000); active means well fitted rising curve with a large enough effect; inconclusive means small, poorly fitted or top-dose-only effect; inactive means no such curve, though single readings can be large or run the other way; note: 0% is about no effect; nearly all actives have a fitted effect of over 55% in size; growth read by luminescence after 48 h
* hit, by the source's call; ? = inconclusive; nt = no result given; & = joins results of further samples; [ ] = dose if it differs, or a comment. Unless noted, calls come from the whole dose curve; as a rule, active = well fitted curve in the direction sought with a large enough effect; inconclusive = small, poorly fitted or top-dose-only effect, or another doubt; inactive = no such curve, though single readings can be large; an effect the other way counts as inactive or inconclusive. Potency is the fitted concentration of half-maximal effect. Compounds as they come. Share with any hit: about 4.6%.

Order of results – RE007 growth inh	Cruzain noTriton	StopGo reporter	Cruzain Triton	NS1 inh	MARV entry inh	LASV entry inh	SARS PLP yeast
Cc1cccc(NC(=S)N/N=C/c2ccc(Cl)c([N+](=O)[O-])c2)c1
 : -15%	32µM*	-17%	-3.1%	8%	?	7%	-3%
Fc1ccc(NC2=NCCS2)cc1Cl
 : -27%	-3%	-3%	4.7%	-43%	17%	14%	-6%
NC(=O)c1c(NC(=O)c2ccccc2)sc2c1CCC2
 : -13%	nt	17%	nt	-13%	-8%[46.1 µM]	nt	-6%
CCC(=O)Nc1ccccc1
 : 13%	nt	-5%	nt	-2%	nt	nt	5%
Cc1nn(C)c(C)c1S(=O)(=O)N(CC(=O)N1CCc2ccccc21)c1ccc(C(C)C)cc1
 : 0%	?	-11%	-3.1%	3%	1%	nt	-1%
CN(C)S(=O)(=O)c1ccc(-c2cn3ccccc3n2)cc1
 : -3%	-7%	3%	-11%	-4%	?	-22%	-22%
Cc1c(NC(=O)C(C)OC(=O)/C=C/c2ccc3c(c2)OCO3)c(=O)n(-c2ccccc2)n1C (stereo not given)
 : 0%	nt	55%[activator]	nt	nt	3%[46.1 µM]	5%	4%
COc1ccc(CCn2ccc(O)c(Cc3ccc(Cl)cc3)c2=O)cc1OC
 : -5%	nt	-16%	nt	8%	-21%[46.1 µM]	?	1%
CCCCN1C(=O)N(c2ccc(Cl)cc2)C(C)(O)CC1(C)C (stereo not given)
 : -3%	nt	12%	nt	-3%	-8%[46.1 µM]	1%[46.1 µM]	-2%
O=C(CCc1c[nH]c2ccccc12)NCc1ccncc1
 : -9%	nt	-8%	nt	24%	13%[46.1 µM]	8%	3%

Order of results – RE007 growth inh	Cruzain noTriton	StopGo reporter	Cruzain Triton	NS1 inh	MARV entry inh	LASV entry inh	SARS PLP yeast
O=C(CC1SC(=Nc2ccccc2)N(Cc2ccccn2)C1=O)Nc1cccc(Cl)c1 (stereo not given)
 : -2%	?	0%	-9.6%	?	?	2%	3%
CCN(CC)CCNC(=O)c1ccc2c(=O)n(CCc3ccccc3)c(=O)[nH]c2c1
 : 1%	3%	37%[activator]	2.5%	-1%	?	-9%	0%
COC(=O)c1ccc(Cn2cc(/C=C\[N+](=O)[O-])c3ccccc32)o1
 : 14%	nt	40µM*	nt	-38%	?	?	-15%
Cc1cc2ncc(S(C)(=O)=O)c(N)n2n1
 : 1%	nt	3%	nt	nt	3%[46.1 µM]	1%	1%
Cc1cc(C)c(S(=O)(=O)N2CCN=C2c2ccccc2)c(C)c1
 : 17%	5%	-1%	-4.6%	-2%	11%	-3%	-1%
Fc1ccc(N2CCN(c3ccc4c(C(F)(F)F)cc(C(F)(F)F)nc4n3)CC2)cc1
 : 7%[3.69 µM]	-6%	-1%	1.7%	14%	-10%	-4%	4%
CSc1ccccc1NC(=O)CN(C)CC(=O)Nc1ccc(N2CCOCC2)cc1
 : 10%	nt	6%	nt	nt	?	-4%	3%
C=CCOc1c(Br)cc(CNn2nnnc2N)cc1OCC
 : 0%	0%	-13%	1.6%	-7%	-4%	-2%	9%
CN1CCN(C(=O)c2ccccc2N(Cc2ccccc2)S(C)(=O)=O)CC1
 : 7%	-2%	-8%	4.5%	-1%	1%&-16%	5%	4%
OCC1(CCOc2ccccc2)CCN(Cc2nc3ccc(F)cc3[nH]2)CC1
 : 41%	nt	?	nt	4%	?	?	-2%

Order of results – RE007 growth inh	Cruzain noTriton	StopGo reporter	Cruzain Triton	NS1 inh	MARV entry inh	LASV entry inh	SARS PLP yeast
CC(NC(=O)c1ccccc1NC(=O)c1ccccc1)C(=O)N1CCOCC1 (stereo not given)
 : -4%	-2%	-17%	-2.6%	15%	-7%	-6%	6%
Clc1ccc2nc(N3CCN(c4ccccc4)CC3)sc2c1
 : -6%	20µM*	12%	-0.3%	6%	-7%	?	?
COc1ccccc1C1/C(=C(/O)c2ccccc2)C(=O)C(=O)N1CCO (stereo not given)
 : -3%	-5%	1%	-0.1%	-3%	1%	8%	2%
COc1cc(C2C3=C(CC(C)(C)CC3=O)N(C)C(=O)N2C)cc(OC)c1OC (stereo not given)
 : 12%	5%	-6%	1.5%	-4%	-26%	13%	-3%
O=C(Nc1ccc(Br)cc1Cl)c1cnccn1
 : 4%	-6%	35%[activator]	-4.2%	2%	-1%	19%	-1%
CC(C)OC(=O)CSc1nc(-c2ccc(F)cc2)nc2ccc(F)cc12
 : 34%	10%	24%	-4.7%	8%	1%	-14%	8%
Cc1ccc(C)c(NC(=O)CN(C)C(=O)CSC(C)C(=O)Nc2cc(C)on2)c1 (stereo not given)
 : 5%	nt	-14%	nt	2%	-3%	-19%	1%
COc1cccc(CNC(=O)COC(=O)c2cc([N+](=O)[O-])ccc2N2CCCC2)c1
 : -2%	nt	?	nt	nt	?	-11%	1%
O=C(NCCCN1CCN(c2ccc(F)cc2)CC1)c1ccc2nc(CCc3ccccc3)oc2c1
 : nt	-4%	-14%	-0.1%	nt	nt	-12%[46.1 µM]	nt
CCOc1ccccc1NC(=O)CSc1nnc(CCC(=O)Nc2ccccc2F)n1C
 : 28%	nt	-12%	nt	-8%	0%	1%	0%

4 entries drawn at random from the list so far:
Order of results – RE007 growth inh	Cruzain noTriton	StopGo reporter	Cruzain Triton	NS1 inh	MARV entry inh	LASV entry inh	SARS PLP yeast
O=C(NCCCN1CCN(c2ccc(F)cc2)CC1)c1ccc2nc(CCc3ccccc3)oc2c1
 : nt	-4%	-14%	-0.1%	nt	nt	-12%[46.1 µM]	nt
CC(C)OC(=O)CSc1nc(-c2ccc(F)cc2)nc2ccc(F)cc12
 : 34%	10%	24%	-4.7%	8%	1%	-14%	8%
COc1cccc(CNC(=O)COC(=O)c2cc([N+](=O)[O-])ccc2N2CCCC2)c1
 : -2%	nt	?	nt	nt	?	-11%	1%
COc1cc(C2C3=C(CC(C)(C)CC3=O)N(C)C(=O)N2C)cc(OC)c1OC (stereo not given)
 : 12%	5%	-6%	1.5%	-4%	-26%	13%	-3%

(listing goes on)
Order of results – RE007 growth inh	Cruzain noTriton	StopGo reporter	Cruzain Triton	NS1 inh	MARV entry inh	LASV entry inh	SARS PLP yeast
O=C1Nc2c(c(=O)[nH]c(=O)n2-c2ccccc2)C(C(F)(F)F)(C(F)(F)F)N1
 : 2%	-4%	2%	2.9%	2%	8%	-2%	4%
NC(=S)N/N=C/c1ccc(-c2cccc([N+](=O)[O-])c2)o1
 : 0%	3.2µM*	-6%	2.8µM*	-1%	-26%	-2%	14%
CCC(CC)C(=O)N(CCc1ccc(OC)cc1)Cc1nc2ccccc2c(=O)[nH]1
 : 1%	10%	nt	-1.0%	-10%	?	?	-13%
CSc1ccc(CN(C)C(=O)c2cc(=O)[nH]c3ccccc23)cc1
 : 0%	nt	2.8µM*	nt	3%	0%[46.1 µM]	-14%	-7%
COCCn1c(SCC(=O)Nc2ccc3c(c2)OCCO3)nc2c(c1=O)SC(C)C2 (stereo not given)
 : -11%	-19%	42%[activator]	-0.4%	8%	nt	nt	12%
CC(O)CCC(=O)NNC1CC(=O)N(c2ccccc2)C1=O (stereo not given)
 : 11%	nt	-7%	nt	3%	5%[46.1 µM]	3%[46.1 µM]	1%
CC(Nc1[nH]c(=O)n(C)c(=O)c1N=O)c1ccccc1 (stereo not given)
 : 2%	nt	-5%	nt	nt	?	0%	0%
COC(=O)C(Cc1ccc(O)cc1)NC(=O)C(C)NC(=O)c1ccc(C(C)(C)C)cc1 (stereo not given)
 : 1%	nt	18%	nt	10%	-1%[46.1 µM]	-2%	-1%
CN(C)S(=O)(=O)c1ccc(NC(=O)Cn2nc(-c3ccc4c(c3)OCCO4)ccc2=O)cc1
 : 12%	nt	-7%	nt	nt	1%[46.1 µM]	1%	nt
Cc1ccc(N2CC(C(=O)N3CCC4(CC3)CC(=O)c3ccccc3O4)CC2=O)cc1 (stereo not given)
 : 1%	nt	?	nt	nt	?	-5%	2%

Order of results – RE007 growth inh	Cruzain noTriton	StopGo reporter	Cruzain Triton	NS1 inh	MARV entry inh	LASV entry inh	SARS PLP yeast
O=C(COCc1cc(-c2cccs2)on1)NC1CCCCC1
 : 4%	nt	4%	nt	-12%	nt	nt	-4%
Cn1c(SCC(=O)Nc2nccs2)nnc1C12CC3CC(CC(C3)C1)C2
 : 18%	6%	3%	4.3%	-6%	9%	-23%	-6%
COc1ccc2nc(C(C)O)[nH]c2c1 (stereo not given)
 : 1%	-10%	12%	-0.8%	5%	-1%	21%	-5%
CCOC(=O)c1ccc(NC(=O)Nc2ncccc2C)cc1
 : 6%	nt	30%[activator]	nt	7%	nt	nt	-1%
CN1/C(=C\C(=O)CSc2cccc[n+]2[O-])C(C)(C)c2ccccc21
 : 8%	nt	0%	nt	nt	-9%[46.1 µM]	-2%	?
Cc1c(NC(=S)N/N=C/c2cccc(O)c2)c(=O)n(-c2ccccc2)n1C
 : -11%	-3%	-18%	-2.0%	-3%	6%	5%	-2%
Cc1ccc(S(=O)(=O)N2CCCC(C(=O)NC3CC3)C2)cc1 (stereo not given)
 : 13%	nt	14%	nt	-12%	0%[46.1 µM]	2%[46.1 µM]	1%
COc1ccc(/C=C/C(=O)NC(=S)N2CCCCC2)cc1OC
 : -7%	nt	3%	nt	9%	11%[46.1 µM]	0%	2%
Cc1cc(C)n(C(C[N+](=O)[O-])c2ccc(Cl)cc2)n1 (stereo not given)
 : ?	20µM*	?	-5.3%	8%	-20%	-2%	-12%
CCn1c2ccccc2c2cc(CNCCCN3CCOCC3)ccc21
 : 3%	nt	-11%	nt	-12%	nt	nt	-1%
Cc1ccc(CN2CCC(Oc3cccc(C(=O)N(C)CCN(C)C)c3)CC2)cc1C
 : 10%	nt	0%	nt	13%	?	20%[46.1 µM]	0%
CC1CCCCC1NC(=O)COC(=O)c1cc(=O)[nH]c2ccccc12 (stereo not given)
 : -17%	nt	-17%	nt	nt	?	20%	-2%
COc1cc(C(=O)Nc2cc(C)c(OCC(=O)N3CCOCC3)c(C)c2)cc(OC)c1OC
 : 8%	26%	-13%	7.1%	-1%	?	0%	5%

Compound activity deposited in PubChem BioAssay by National Center for Advancing Translational Sciences (NCATS).
